From PubChem
Sfp PPTase inh = blocks B. subtilis Sfp PPTase activity; 310,000 compounds, 3.5% hits; Potency, µM, for inactives: max response, negative = inhibition, actives largely listed as inhibitors; Biochemical Sfp PPTase activity, qHTS; active = well fitted inhibition curve with a large enough effect; inconclusive = small, poorly fitted or top-dose-only effect, or another doubt; inactive = no such curve, though single readings can be large or run the other way;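 also: the enzyme is Sfp with the accession as filed and its product quenches rhodamine fluorescence; potency is read from the fitted curve at half-maximal effect; 0% = enzyme reaction without inhibitor and -100% = no enzyme wells; top concentration of the series not given in the record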
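Buffer: 50 mM Hepes-Na pH 7.6, 10 mM MgCl2, 0.01% Nonidet P-40, 0.01% BSA. Enzyme 15 nM, pre-exposed to compound 15 min; substrates then added and fluorescence change tracked over 30 min.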
TRPV1 potentiator = human TRPV1 potentiation; Q8NER1; potentiation, % at 8.33 µM; 320,000 compounds, 0.02% hits; AID 540277; TRPV1-expressing cells, Fluo-8 calcium influx, capsaicin EC20 potentiation; host cell line not named in the record; control for the full effect not named in the record; active means potentiation above 80%; inconclusive means 30% to 80%; inactive means below 30%; also: 0% is about no effect
Target sequence (Q8NER1 whole entry, looked up): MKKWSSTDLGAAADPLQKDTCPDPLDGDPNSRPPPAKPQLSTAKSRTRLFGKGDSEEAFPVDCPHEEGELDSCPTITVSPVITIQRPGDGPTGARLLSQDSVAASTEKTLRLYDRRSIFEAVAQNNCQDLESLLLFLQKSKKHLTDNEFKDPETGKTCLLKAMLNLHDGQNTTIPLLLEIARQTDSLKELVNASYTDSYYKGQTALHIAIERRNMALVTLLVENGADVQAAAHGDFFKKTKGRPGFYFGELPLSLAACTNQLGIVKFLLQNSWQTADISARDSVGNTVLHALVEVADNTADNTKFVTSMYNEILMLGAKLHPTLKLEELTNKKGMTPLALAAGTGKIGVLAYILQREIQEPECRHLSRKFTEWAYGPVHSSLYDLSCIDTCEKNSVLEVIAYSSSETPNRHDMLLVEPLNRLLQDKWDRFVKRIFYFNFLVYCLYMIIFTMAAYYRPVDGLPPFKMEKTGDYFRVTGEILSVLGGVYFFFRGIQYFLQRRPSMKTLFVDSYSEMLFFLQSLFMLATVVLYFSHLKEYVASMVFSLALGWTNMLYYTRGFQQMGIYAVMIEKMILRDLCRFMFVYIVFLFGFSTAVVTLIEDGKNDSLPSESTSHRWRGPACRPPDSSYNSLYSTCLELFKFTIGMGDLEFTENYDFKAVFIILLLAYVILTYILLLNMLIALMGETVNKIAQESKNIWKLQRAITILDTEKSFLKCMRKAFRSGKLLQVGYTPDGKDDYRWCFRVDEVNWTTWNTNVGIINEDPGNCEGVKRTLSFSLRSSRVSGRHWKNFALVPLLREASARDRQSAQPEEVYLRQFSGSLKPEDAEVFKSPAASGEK
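Fluo-8 calcium influx in TRPV1-expressing cells, kinetic read (ex 480/em 520 nm). Compound added and read 3 min for agonist activity, followed by capsaicin at EC20 final and 2 min further read for enhancement.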
gsp ag = activates gsp, the McCune-Albright syndrome mutation. gsp mutant cells, cAMP HTRF, 30 min; control for the full effect not named in the record. Potency, µM (series often up to 76.9 µM), inactives show at the highest dose activation (cAMP increase), most hits filed as activators. 340,000 compounds, 0.13% hits; active = well fitted activation curve with a large enough effect; inconclusive = small, poorly fitted or top-dose-only effect, or another doubt; inactive = no such curve, though single readings can be large or run the other way; cell line not stated here;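 also: phosphodiesterase inhibitor Ro 20-1724 added with compounds to block cAMP breakdown; potency is read from the fitted curve at half-maximal effect; nearly all actives have a fitted effect of over 60% in size; about a fifth of the inactives were tested at one dose only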
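Cells stably selected in G418 were plated at 2000/well, grown 16-24 hr, then given compounds in DMSO with the PDE inhibitor […] (300 uM solution added) for 30 min at 37C; cAMP was read by HTRF.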
Menin-MLL FL inh = inhibitors of human menin-MLL interaction, wild-type MLL peptide; Fluorescence polarization, fluorescein-MLL peptide displacement from menin; FP activity change, % at 61.4 µM; 290,000 tested, under 10 active; AID 1766; inconclusive = falling polarisation curve, or a change in total fluorescence; inactive = total fluorescence flat and polarisation flat or rising; no compound was filed as active; the % refers to the polarisation; negative = inhibition;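 also: % of control where 0% means no effect; inhibitors lower the polarisation; unlabelled MLL peptide was the positive control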
CtBP-E1A blk = inhibitors of CtBP/E1A interaction. activity change, % (test concentration not listed). AID 651724. AlphaScreen GST-E1A/His-CtBP binding, 1536-well; active compounds read low; control for the full effect not named in the record. 340,000 compounds, 0.49% hits; in the data active means activity change below about -65%; inconclusive means about -30% to -65%; inactive means above about -30%; also: % is scaled to controls: 0 for no effect and ±100 for the full control effect
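GST-E1A and His-tagged CtBP (125 nM each as 5X stock) were preincubated with pin-transferred compound for 2 h at 37 °C in the dark, then glutathione donor and nickel acceptor beads were added for 1 h before AlphaScreen reading.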
ClpP mod = qHTS Assay for Activators of ClpP; Potency, µM (series often up to 57.5 µM), for inactives: at the top dose activity change, negative = active; 340,000 compounds, 1.9% hits; purified B. subtilis ClpP, FRET peptide cleavage, 20 min; ATP-dependent Clp protease proteolytic subunit (Bacillus subtilis (strain 168)), P80244; active = well fitted falling curve with a large enough effect; inconclusive = small, poorly fitted or top-dose-only effect; inactive = no such curve, though single readings can be large or run the other way; also: potency is read from the fitted curve at half-maximal effect; the source files actives as falling curves though it sought activators and does not explain the sign; nearly all actives have a fitted effect of over 65% in size; many hits overshoot -100%
Target sequence (P80244 whole entry, looked up): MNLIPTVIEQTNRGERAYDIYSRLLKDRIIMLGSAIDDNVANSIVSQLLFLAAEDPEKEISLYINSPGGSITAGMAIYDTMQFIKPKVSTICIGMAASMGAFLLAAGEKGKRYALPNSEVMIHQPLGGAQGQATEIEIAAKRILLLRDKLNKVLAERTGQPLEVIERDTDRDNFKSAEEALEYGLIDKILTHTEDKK
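Purified B. subtilis ClpP, 10 microg/mL final in Tris/HCl pH8 with KCl, BSA, glycerol and Tween-20, cleaved an Abz/nitrotyrosine-quenched decapeptide. Fluorescence (ex 320, em 430) was read at 0 and 20 min at room temperature. Delta was normalized to 5.8 microM ADEP and DMSO/no-enzyme controls.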
gsp antag = antagonizes gsp, the McCune-Albright syndrome mutation; Potency, µM (top dose mostly 76.9 µM), inactives show at the highest dose activity change, negative = inhibition, actives largely listed as inhibitors; gsp-mutant cells, cAMP HTRF, 30 min; control for the full effect not named in the record; 340,000 compounds, 0.4% hits; active = falling curve of any shape with a large fitted effect; inconclusive = falling curve, mostly with a smaller effect; inactive = flat or rising curve; cell line not stated here;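 also: intracellular cAMP measured with PDE inhibitor Ro 20-1724 present during compound exposure; potency is read from the fitted curve at half-maximal effect; % is scaled to controls: 0 for no effect and ±100 for the full control effect; nearly all actives have a fitted effect of over 65% in size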
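Measurement of cellular cAMP by homogeneous time-resolved fluorescence following a 30 min compound exposure at 37C. The PDE inhibitor […] was present throughout; the assay buffer was DPBS with 0.05% BSA and 0.005% Tween 20.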
Starred values were filed as active, the others as inactive; ? = inconclusive; / = no result given; & = joins results of further samples; [ ] = remark or other dose.

Results follow in this order: Sfp PPTase inh	TRPV1 potentiator	gsp ag	Menin-MLL FL inh	CtBP-E1A blk	ClpP mod	gsp antag
CN(c1ccccc1)S(=O)(=O)c1cccc(NC(=O)CN2CCCc3ccccc32)c1
  10.8%	?	0.4%[15.4 µM]	7.0	?	/	-9.6%
CCOC(=O)c1c(NC(=O)C2C3C=CC(C3)C2C(=O)O)sc2c1CC(C)(C)OC2 (centres undefined)
  3.3%	2.9	11.0%[15.4 µM]	0.0	0.7	/	?
C=CCn1c(SCC(=O)NC(=O)NCCC)nnc1C1CCCCC1
  6.7%	2.2	25.7%	-0.1	6.5	3.16µM*	4.8%
Cc1sc(NC(=O)c2ccco2)c(C(=O)c2ccc(Cl)cc2)c1C
  39.8µM*	-7.5	-1.3%	10.6	-22.8	1.0%	-5.0%
Fc1ccccc1OCCCN1CCOCC1
  ?	3.4	0.4%	-0.2	10.3	-0.3%	-1.1%
COC(=O)c1cc(S(=O)(=O)NCC2CCN(Cc3ccc(C)cc3)CC2)c[nH]1
  24.6%	2.6	?	-1.9	4.7	0.9%&-2.6%	-4.6%
S=c1[nH]ccn1-c1ccccc1Cl
  0.4%&5.3%	-0.5&9.7	2.1%[15.4 µM]	1.2&-0.9	-6.3	-1.2%	10.7%
Cc1ccc(/C=N/NC(=O)c2ccc(N(C)S(=O)(=O)c3ccccc3)cc2)cc1
  -10.1%	-7.3	-1.8%	-3.4	-17.0	/	-13.0%
COc1cc(-c2nc(Cc3ccccc3Cl)no2)cc(OC)c1OC
  -6.4%	7.3	-4.3%	-1.9	19.3	?	12.0%
O=C(CC12CC3CC(CC(C3)C1)C2)NCc1ccccc1
  16.4%	-16.6	-60.2%[inhibitor]	2.7	2.4	/	-1.0%
Cc1ccc(S(=O)(=O)N2CCCOC2CNC(=O)C(=O)NCc2ccncc2)cc1 (centres undefined)
  5.2%	-3.5	4.5%	3.6	4.4	1.0%	6.2%
CCN1CC(CN(C)Cc2cn(-c3ccc(C)cc3)nc2-c2ccc(F)cc2)CC1=O (centres undefined)
  -11.6%	23.3	-9.0%[15.4 µM]	0.3	10.0	-1.2%	6.5%
CC(CCc1ccccc1)NC(=O)CN1CCSc2ccccc21 (centres undefined)
  ?	5.8	7.3%[15.4 µM]	1.8	-25.0	-1.9%	-17.7%
Cc1ccc2nc(-c3ccc(NC(=O)CN(C)S(=O)(=O)c4ccccc4)cc3)sc2c1
  16.0%	6.5	/	-4.7	/	/	/
CCOc1ccc(C(=O)N2CCN(Cc3ccccc3)CC2)cc1
  -11.8%	-35.5	-23.2%	1.4	0.6	-1.0%	7.4%
O=c1cc(-c2ccc(F)cc2F)[nH]c2ccccc12
  16.4%&12.0%	-0.9	/	-2.2[94.6 µM]	/	/	/
CCOc1cc2sc(N3CCC(C(=O)NCCCN4CCCC4=O)CC3)nc2cc1Br
  1.5%	1.3	1.6%	5.2	/	-1.7%	-10.8%
CC1(c2nnc(Cc3ccccc3)o2)CC(c2ccncc2)=NO1 (centres undefined)
  /	/	14.8%	/	-6.7	-1.9%	-3.6%
c1ccc(-c2ccc(C3=Nn4c(nnc4-c4cccs4)SC3)cc2)cc1
  ?	-1.6	5.4%[15.4 µM]	2.3	?	/	-27.8%
O=C(NC(=S)Nc1nc2c(s1)CSc1ccccc1-2)c1ccccc1
  44.7µM*	9.6	-28.1%	1.1	2.7	0.4%	1.7%
Cc1ccc(S(=O)(=O)NC(=O)NN2CC3CCCC3C2)cc1 (centres undefined)
  ?	1.1	13.8%	-0.2&3.4&4.6	6.4	/	1.4%
CCN1CCN(c2ccc(S(=O)(=O)N3CCOCC3)cc2NC(=O)/C=C/c2cccc(OC)c2OC)CC1
  /	6.1	?	/	-16.1	-5.1%	0.0%
O=C(CC(NC(=O)c1ccccc1Cl)c1ccccc1)NCCc1ccc(Cl)cc1 (centres undefined)
  8.0%	-8.8	-6.0%	6.8	-3.7	0.4%	8.7%
COc1ccccc1NC(=O)NS(=O)(=O)c1ccc(C)cc1
  8.3%	7.3	-34.0%	1.4	1.0	-1.1%	1.3%
O=C(NCCCNC(=O)c1ccccc1F)c1ccco1
  -7.4%	4.8	-19.4%[15.4 µM]	-3.9	-0.6	/	4.9%
COCCn1c(/C=C/c2ccccc2)nc2ccccc21
  7.8%	-11.0	-43.2%[15.4 µM]	-2.0	16.2	/	-39.6%
CCOc1ccc(NC(=O)CCCCn2c(=O)[nH]c3ccsc3c2=O)cc1
  -10.6%	7.0	20.9%	-1.9	4.4	/	-3.2%
COc1ccc(NC(=O)NCC(C)CSc2ccc(C)cc2)c(OC)c1 (centres undefined)
  9.6%	?	4.9%	0.3	/	-2.5%	-0.5%
C/C(N)=C(/C#N)C(=O)COC(=O)CNS(=O)(=O)c1c(F)cccc1F
  7.5%	-1.4	13.7%	1.1	/	-1.5%	-2.4%
Cc1ccc(S(=O)(=O)c2cc3ccc(O)cc3oc2=O)cc1C
  6.0%	10.1	?	3.9	/	4.0%	-24.8%
Cc1ccccc1-c1nnc(CN2CCC(C)CC2)o1
  8.9%	-1.3	17.6%	-5.0	-13.7	/	4.4%
CN1CCN(S(=O)(=O)c2ccc(Cl)c(C(F)(F)F)c2)CC1
  /	/	-7.1%	/	-0.3	-1.3%	-2.1%
Cc1nc(-c2ccc(S(=O)(=O)N3CCN(C4c5ccccc5-c5ccccc54)CC3)s2)cs1
  10.6%	27.5	-10.5%[15.4 µM]	3.8	-0.4	28.2µM*	0.5%
CC1(C)CC(=O)c2c(nn(-c3ccccc3)c2-c2ccncc2)C1
  17.9%	0.5	7.4%	3.8	2.9	-2.6%	-1.1%
CCOC(=O)c1nn(-c2ccc(C)cc2)cc1O
  9.2%	1.0	8.7%	2.3	-5.1	-12.8%	-9.0%
CS(=O)(=O)N1CCN=C1SCc1ccc([N+](=O)[O-])cc1
  15.6%	0.6	-1.2%[15.4 µM]	0.2	8.8	/	9.9%
Cc1cccc(N2CCCC2=Nc2ccc(Br)cc2C#N)c1
  10.4%	1.9	-4.1%	0.7	10.5	-5.3%	-14.9%
CC(=O)NC1CC2CCCC(C1)N2C(=O)Nc1cccc(Cl)c1 (centres undefined)
  /	/	3.0%	/	3.8	/	11.5%
CCOc1ccccc1NC(=O)C(OC(=O)C1CC1)c1ccccc1 (centres undefined)
  7.1%	0.1	18.9%[15.4 µM]	3.8	8.0	/	-11.0%
Cc1cccc(OCCNC(=O)c2cccc(Oc3ccc(C(F)(F)F)cc3[N+](=O)[O-])c2)c1
  35.4%[activator]	5.3	0.7%	-1.9	-9.9	1.9%	-2.5%
O=C1CCC(=O)N1c1cccc(OS(=O)(=O)c2ccccc2)c1
  10.7%	2.0	25.3%	3.5	9.4	?	3.5%
O=C(Cn1nnc2ccccc21)NCc1ccccc1
  7.0%	-0.5	0.0%	-0.1	2.6	1.2%	20.4%
Cc1ccc2c(c1)C(=O)N(CCCCO)C2=O
  10.6%	8.7	0.6%	2.7	0.5	-8.6%	12.7%
Cc1oc(-c2ccccc2F)nc1CS(=O)(=O)CC(=O)NC(C)CCc1ccccc1 (centres undefined)
  -0.6%	-0.9	26.5%	-0.6	-9.7	-3.4%	?
COc1ccc(-c2csc3nc(-c4cccnc4)nc(Cl)c23)cc1OC
  25.1µM*	-1.3	5.4%	9.1	-5.6	/	2.6%
CC(C)(C)OC(=O)C[C@@H]1C/C=C\C[C@H](CC(=O)N[C@H](CO)Cc2ccccc2)C(=O)N[C@@H](Cc2ccccc2)COC1=O
  /	/	1.4%	/	-10.0	0.1%	1.0%
C[C@H](NC(=O)c1nc[nH]c1C(=O)N1CCN(c2ccccc2)CC1)c1ccccc1
  /	17.5	-57.2%[inhibitor]	/	0.9	-0.6%	1.5%
COC(=O)c1sccc1N/N=C/c1cccc(OC)c1O
  19.9%	-3.5	2.9%	-1.3	0.3	?	-2.8%
COc1ccc(NC(=O)C(CCSC)N2C(=O)c3ccccc3C2=O)cc1 (centres undefined)
  50.1µM*	6.1	-34.6%[inhibitor]	0.0	-6.4	-1.0%	8.6%
COc1ccc(NC(=O)c2ccc3c(c2)N(C)CCS3)cc1
  9.3%	-27.5	0.0%	2.2	-9.3	4.4%	-14.2%
O=S(=O)(NC1CCCCC1N1CCC(O)CC1)c1ccccc1 (centres undefined)
  13.5%	-10.9	-11.8%[15.4 µM]	0.3	10.3	?	4.0%
O=C(/C=C/c1ccc(Cl)c(Cl)c1)N1CCc2ccccc21
  23.4%	-5.7	2.5%	4.5	-0.4	?	13.3%
Fc1cccc(-n2cc(-c3ccccc3)c3c(=S)nc[nH]c32)c1
  7.4%	?	27.0%	1.4	-29.1	-1.2%	?
C=C1CCN([C@@H](C)C(=O)NCc2ccc(OC)cc2)S(=O)(=O)c2ccccc21
  -11.7%	-5.9	/	4.0	3.3	2.6%	0.3%
N#Cc1ccc(CN2CCN(C(=O)c3ccc(S(=O)(=O)N4CCCCCC4)cc3)CC2)cc1
  /	9.1	-20.1%	/	/	0.3%	-20.0%
COC(=O)c1ccccc1S(=O)(=O)N1CCC(C(=O)Nc2ccc(N3CCOCC3)cc2)CC1
  /	/	-3.3%[15.4 µM]	/	-15.0	-14.3%	-6.1%
CCOC(=O)C1CCCN(C(=O)c2cc3c(=O)n(C)c4ccccc4c3n2C)C1 (centres undefined)
  3.2%	-8.4	8.1%	-2.6	-7.3	-6.9%	-11.2%
Cc1ccc(Nc2nc(N)nc(COC(=O)C3=COCCO3)n2)cc1
  /	0.0	13.2%	/	-21.9	-4.3%	5.8%
O=C(COC(=O)Cc1ccsc1)Nc1ccc(Br)cc1
  /	-15.6	2.2%	/	0.7	-1.1%	-15.1%
CCOC(=O)CN(C(=O)CNC(=O)c1cccs1)C(C(=O)NC1CCCC1)c1cccnc1 (centres undefined)
  3.9%	9.1	-25.1%	1.5	8.9	-4.4%	19.0%
